WNV NS2B-NS3 inh – WNV NS2B-NS3 proteinase inhibition | WNV NS2B-NS3 protease, fluorogenic substrate Ex360/Em465; active compounds read low | z-score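 (tested at a level between 10 and 100 µM)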 | hit rate 0.18% among 65,000 | AID 577;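 active = z-score at -3 or under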;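 note: score is relative to mean and spread of the compound wells of a plate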
Target sequence (P06935 1371-1501 limits assumed): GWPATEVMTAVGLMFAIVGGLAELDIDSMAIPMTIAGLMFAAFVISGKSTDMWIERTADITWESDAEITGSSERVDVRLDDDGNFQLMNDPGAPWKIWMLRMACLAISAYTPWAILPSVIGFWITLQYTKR
Target sequence (P06935 1502-1679 limits assumed): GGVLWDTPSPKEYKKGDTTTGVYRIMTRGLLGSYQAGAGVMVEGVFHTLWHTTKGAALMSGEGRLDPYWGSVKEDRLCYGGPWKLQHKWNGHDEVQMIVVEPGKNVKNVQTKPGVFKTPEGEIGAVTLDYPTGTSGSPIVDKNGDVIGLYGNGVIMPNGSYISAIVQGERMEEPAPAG
Hsc70 ATP site – Hsc70 inhibitors, probe displacement, primary screen, biochemical, fluorescence polarization (AID 568) | 83,000 tested, under 10 active | Hsc70 fluorescence polarization, probe displacement; higher % means a stronger effect; strong numbers were not always called active | displacement, % at 20 µM; hits with a dose series show IC50 in µM;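 active = displacement above 50% without optical interference and an IC50 on retest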;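 note: ATPase domain with a fluorescein-tagged ATP probe; 0% = vehicle and 100% = excess ADP; read after one hour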
MT1-MMP promoter – MT1-MMP gene expression reporter suppression – cell-based, luciferase reporter, luminescence (AID 618) | MT1-MMP promoter luciferase reporter cells, luminescence | calls from a first round at 10 µM; hits with a dose series show EC50 in µM | hit rate 0.62% among 87,000;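 active = over half of the reporter light lost at 10 µM or EC50 under 50 µM; inactive = the rest and hits that failed the dose series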;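 note: actives suppress MT1-MMP promoter-driven transcription so potencies describe inhibitors; HT1080 fibrosarcoma cells; overnight exposure; toxic or luciferase-blocking compounds were not removed from the actives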
* marks the source's active call; other numbers are inactive results; i = inactive; nt = not tested or not shown. Only part of the results is shown (hit frequency here may not be typical).

SMILES | WNV NS2B-NS3 inh | Hsc70 ATP site | MT1-MMP promoter
CCOc1ccc(N(Cc2cc3cc(OC)ccc3[nH]c2=O)C(=O)C2CCCO2)cc1 (stereo unspecified) | -0.23 | -3.2% | i
c1ccc(-c2nc(NCCCN3CCOCC3)c3ccccc3n2)cc1 | -0.29 | 7.8% | i
CC(C)CN(C(=O)COC(=O)C1c2ccccc2Oc2ccccc21)C1CCS(=O)(=O)C1 (stereo unspecified) | nt | 3.4% | i
COc1ccc(C2/C(=C(\O)c3ccc4c(c3)OCCO4)C(=O)C(=O)N2CCCN(C)C)cc1 (stereo unspecified) | 0.09 | 0.2% | i
O=C(O)c1cn(C2CC2)c2cc(N3CCOCC3)c(F)cc2c1=O | nt | 0.7% | i
COc1ccc(N2CCN(Cc3nc4ccccc4c(=O)[nH]3)CC2)cc1 | -1.2 | 1.9% | i
Cc1c(Cl)cccc1NC(=O)COc1ccc(S(=O)(=O)N2CCOCC2)cc1 | nt | 2.5% | i
COC(=O)CC1C(=O)NCCN1C(=O)c1ccccc1 (stereo unspecified) | 1.9 | 7.4% | i
CCCCn1c(SCC(=O)NCC2CCCO2)nc2ccc(N3CCOCC3)cc2c1=O (stereo unspecified) | -0.3 | 3.0% | i
O=C(Nc1ccon1)c1sc2cc(F)ccc2c1Cl | -0.83 | 4.2% | i

Entries shown so far with a halogen:
SMILES | WNV NS2B-NS3 inh | Hsc70 ATP site | MT1-MMP promoter
O=C(O)c1cn(C2CC2)c2cc(N3CCOCC3)c(F)cc2c1=O | nt | 0.7% | i
Cc1c(Cl)cccc1NC(=O)COc1ccc(S(=O)(=O)N2CCOCC2)cc1 | nt | 2.5% | i
O=C(Nc1ccon1)c1sc2cc(F)ccc2c1Cl | -0.83 | 4.2% | i

Additional structures follow:
SMILES | WNV NS2B-NS3 inh | Hsc70 ATP site | MT1-MMP promoter
CCOC(=O)c1oc2cc(O)c(CC)cc2c(=O)c1-c1ccc2c(c1)OCCO2 | 1.5 | 1.6% | i
CCOC(=O)c1sc(NC(=O)c2ccco2)nc1-c1ccccc1 | -0.29 | -0.1% | i
COc1cccc(CNC(=O)C2CCCN(S(=O)(=O)c3cnc[nH]3)C2)c1 (stereo unspecified) | 0.69 | 2.0% | i
CCOC(=O)N1CCC(NC(=O)c2cc(S(=O)(=O)N3CCC4(CC3)OCCO4)ccc2F)CC1 | 0.21 | 0.8% | i
Cc1ccc(S(=O)(=O)NCC(=O)N2CCCC2)cc1 | nt | 0.1% | i
COCCn1c(-c2ccccc2)nc2oc3cc(OC)ccc3c(=O)c2c1=O | nt | 0.6% | i
CCOc1cc(C2C(C(=O)OC)=C(C)N=C3SCCC(=O)N32)ccc1OC(C)=O (stereo unspecified) | -0.13 | -2.3% | i
CC(C)CNC(=O)c1ccccc1NC(=O)c1ccc(CN2CCOCC2)cc1 | -0.42 | 2.9% | i
O=C(c1ccccc1F)N1CCN(Cc2cccc(Cl)c2)CC1 | -0.53 | -1.7% | i
O=c1[nH]ncc2c3ccccc3n(Cc3ccccc3)c12 | 0.19 | -5.0% | i
C=CCc1c(C)nn(CC(=O)O)c1-c1ccccc1 | -1.2 | -8.9% | i
CCc1nnc(NC(=O)CCN2C(=O)CCC2=O)s1 | 0.13 | 4.9% | i
CCOC(=O)N1CCN(C(=O)COc2ccc(Br)cc2Cl)CC1 | -0.56 | 3.6% | i
CC1CCN(S(=O)(=O)c2ccc3[nH]c(=O)c(=O)[nH]c3c2)CC1 | -0.28 | 6.8% | i
Cc1nc2ccc(NC(=O)Cc3ccsc3)cc2s1 | nt | -4.1% | i
O=c1cc(N2CCN(c3ccccc3F)CC2)[nH]c(=O)n1-c1ccc(Br)cc1 | -0.28 | 11% | i
COc1ccccc1OCC(O)Cn1c(=N)n(Cc2ccccc2)c2ccccc21 (stereo unspecified) | 0.76 | -1.6% | i
Cc1[nH]nc2c1C(c1cccnc1)N(c1ccc(Br)cc1)C2=O (stereo unspecified) | -0.25 | 4.2% | i
Nc1nc(SCc2ccccc2)[nH]c(=O)c1-c1ccccc1 | -1.3 | 5.7% | i
O=C(CN(c1ccc2c(c1)OCCO2)S(=O)(=O)c1ccccc1)Nc1ccc2c(c1)OCO2 | 0.74 | -0.2% | i
CCn1c(SCC(=O)Nc2ccc3c(c2)OCO3)nc2c1c(=O)n(C)c(=O)n2C | 0.59 | -2.2% | i
COc1ccc(N(C(=O)C(C)C)S(=O)(=O)c2ccc(Cl)cc2)cc1 | nt | 3.2% | i
O=C(CSc1nnc(-c2ccccn2)n1Cc1ccccc1)Nc1ccc2c(c1)OCO2 | 0.11 | -4.8% | i
O=C(Nc1ccccc1C(=O)N1CCN(c2ccccc2)CC1)c1ccco1 | 0.04 | -3.1% | i
O=S(=O)(c1ccccc1)N1CCN(Cc2cccc(Cl)c2)CC1 | -0.86 | -1.6% | i
Cc1cc(S(=O)(=O)Nc2ccc3ccccc3c2)c(C)s1 | nt | -0.4% | i
CC(C)CCNC(=O)C1CCCN(S(=O)(=O)c2ccc(F)cc2)C1 (stereo unspecified) | -0.83 | 5.0% | i
C=C(C)Cn1c(SCC)nc2ccccc2c1=O | 0.25 | 0.1% | i
Cc1cc(C)n2nc(SC3CCCCN(C(=O)c4ccc(F)cc4)C3=O)nc2n1 (stereo unspecified) | -1 | -3.7% | i
Cc1cccc(C)c1OCC(=O)Nn1c(C)nc2ccccc2c1=O | 0.95 | -0.8% | i
Cc1nn(Cc2ccccc2)c(C)c1NC(=O)c1cc(-c2ccc3c(c2)OCO3)on1 | 1 | 1.6% | i
COc1ccc(N2CCN(C(=O)c3ccc(OCC4CCCO4)cc3)CC2)cc1 (stereo unspecified) | -1.1 | 0.6% | i
COc1ccccc1/C=c1\sc2nc(-c3cccs3)nn2c1=O | -0.14 | -7.8% | i
O=C(NCc1cccs1)C1CC(=O)N(c2ccc(F)cc2)C1 (stereo unspecified) | 0.51 | -5.9% | i
O=C1CC(=O)N(Cc2ccco2)C(=O)N1 | 0.24 | -33% | i
COc1ccc(Cl)cc1S(=O)(=O)N1CCN(c2ccc(F)cc2)CC1 | -0.57 | -2.6% | i
O=C(c1cccnc1)N1CCN(S(=O)(=O)c2ccc(S(=O)(=O)N3CCCC3)cc2)CC1 | -0.35 | -1.3% | i
CCOCc1cc(C2NC(=O)NC(C)=C2C(=O)OCC)ccc1OC (stereo unspecified) | -0.32 | 3.1% | i
CCOc1ccc(N2CC(C(=O)NCCc3ccc(OC)c(OC)c3)CC2=O)cc1 (stereo unspecified) | -0.12 | 2.5% | i
O=C(CCc1ccccc1)Nc1nc2n(n1)C(c1ccc(Cl)cc1)CC(=O)N2 (stereo unspecified) | -3.4* | 3.4% | i
COc1ccc(-c2nn(C)c(=O)c3ccccc23)cc1NC(=O)Cn1nc(-c2ccccc2)c2ccccc2c1=O | nt | -4.0% | i
COc1cccc(C(=O)N(CN2CCCC2=O)c2cc(C)on2)c1 | -1.1 | -2.0% | i
CCc1cccc(OCCCCN(CC)CC)c1 | nt | -1.3% | i
COc1cc(C(=O)NCC(c2cccnc2)N2CCN(c3ccccc3)CC2)cc(OC)c1OC (stereo unspecified) | -0.51 | -3.9% | i
O=c1[nH]c(/C(=N\O)c2ccccc2)no1 | -0.46 | 0.5% | i
CCCN(CC1CC1)C(=O)CSc1nnc(-c2cc(-c3cccs3)nc3ccccc23)o1 | nt | 1.6% | i
CCn1c(COc2ccccc2C)nc2ccccc21 | nt | 0.4% | i
O=C(Nc1ccc2c(c1)OCCO2)c1cc2sccc2n1Cc1ccc(F)cc1 | nt | 2.3% | i
O=C1c2ccccc2-c2nc3ccccc3nc21 | nt | -0.5% | i
CCc1ccccc1NC(=O)CSc1nc2n[nH]c(C)c2c(=N)n1-c1cccc(OC)c1 | nt | 2.2% | i

Another view of 2 compounds above:
Each structure is followed by: WNV NS2B-NS3 inh, Hsc70 ATP site, MT1-MMP promoter
O=c1[nH]c(/C(=N\O)c2ccccc2)no1
    -0.46, 0.5%, i
CCc1cccc(OCCCCN(CC)CC)c1
    nt, -1.3%, i

Following part:
SMILES | WNV NS2B-NS3 inh | Hsc70 ATP site | MT1-MMP promoter
Cn1c(-c2nonc2NC(=O)c2ccc(C(C)(C)C)cc2)nc2ccccc21 | 0.06 | -4.4% | i
CCOC(=O)c1cnc2sc3c(n2c1=O)CCCC3 | 1.2 | -13% | i
O=C(CCc1ccccc1)Nc1nncs1 | nt | 2.7% | i
COc1ccc(C(=O)CSc2nnc(C(CO)NC(=O)c3ccc(OC)cc3)n2C)cc1 (stereo unspecified) | 1.2 | -3.8% | i
CCCn1c(NCc2ccco2)nc2ccccc21 | 0.11 | 3.8% | i
CCOc1ccc(C(=O)N2CCN(c3ccccc3)CC2)cc1OCC | 1.3 | 3.8% | i
O=C(CCCC(=O)OCC(=O)NC1CCCC1)Nc1ccccn1 | -0.17 | 4.9% | i
COc1ccc(/C(O)=C2\C(=O)C(=O)N(CCN(C)C)C2c2cccc(OC)c2OC)cc1Cl (stereo unspecified) | -0.31 | 1.6% | i
O=C(NCCCCCCNC(=O)NCc1ccco1)NCc1ccco1 | nt | 4.2% | i
Cn1ncc2c1ncn1nc(COc3ccc4ccccc4c3)nc21 | 0.9 | -3.2% | i
O=C(Nc1ccccc1)c1ccc(NCC2CCCO2)c(S(=O)(=O)N2CCOCC2)c1 (stereo unspecified) | -0.39 | -5.5% | i
CC/C(O)=C(\C#N)c1nnc2n1CCCCC2 | nt | 1.5% | i
COCCn1nnnc1CN1CCN(c2cccc(C(F)(F)F)c2)CC1 | -0.85 | 1.3% | i
CCCCN(C)C(=O)c1oc2ccc(S(=O)(=O)N3CCCCCC3)cc2c1C | -0.2 | 2.2% | i
CCc1nnc(NC(=O)C2Cc3ccccc3CN2S(=O)(=O)c2ccc(C)cc2)s1 (stereo unspecified) | nt | 0.7% | i
CCN(CCCNC(=O)CC1Oc2ccc(C)cc2NC1=O)Cc1ccccc1 (stereo unspecified) | 0.49 | -2.8% | i
CC(C)(C)OC(=O)NCC(=O)N1CCC(C(=O)O)CC1 | -0.31 | -3.3% | i
Cc1ccc(-c2nnn(Cc3nc4ccccc4s3)n2)cc1 | -0.94 | -0.7% | i
O=C(CSc1ncn[nH]1)c1ccco1 | 1.1 | -2.7% | i
COc1ccc2cc3c(N)nn(C(=O)Cc4ccccc4OC)c3nc2c1 | 0.17 | 0.9% | i

Record cards, as listed above. Order of values: WNV NS2B-NS3 inh | Hsc70 ATP site | MT1-MMP promoter
`O=C(CSc1ncn[nH]1)c1ccco1` as listed: 1.1 | -2.7% | i
`CC/C(O)=C(\C#N)c1nnc2n1CCCCC2` as listed: nt | 1.5% | i
`COc1ccc2cc3c(N)nn(C(=O)Cc4ccccc4OC)c3nc2c1` as listed: 0.17 | 0.9% | i
`O=C(Nc1ccccc1)c1ccc(NCC2CCCO2)c(S(=O)(=O)N2CCOCC2)c1` (stereo unspecified) as listed: -0.39 | -5.5% | i
`CCN(CCCNC(=O)CC1Oc2ccc(C)cc2NC1=O)Cc1ccccc1` (stereo unspecified) as listed: 0.49 | -2.8% | i

The list goes on:
SMILES | WNV NS2B-NS3 inh | Hsc70 ATP site | MT1-MMP promoter
COC(=O)Cn1c(C)nc2c(sc3nc(C)cc(C)c32)c1=O | -0.99 | 1.9% | i
Cc1onc(-c2ccccc2Cl)c1C(=O)NCc1ccc(N2CCCC2=O)cc1 | 0.13 | 5.1% | i
O=C(COC(=O)c1ccccn1)Nc1ccc(S(=O)(=O)N2CCOCC2)cc1 | nt | 6.0% | i
CCN1C2=NCCCN2c2ccccc21 | -0.17 | -3.1% | i
O=S(CCc1ccncc1)Cc1ccccc1 (stereo unspecified) | 0.05 | 0.6% | i
CCn1c2ccccc2c2nnc(SCC(=O)Nc3ccc4c(c3)OCO4)nc21 | -0.86 | 1.6% | i
O=C(CNS(=O)(=O)c1cccs1)N1CCc2ccccc2C1 | 0.7 | -3.8% | i
Cc1cc(C)c2nc(NC3=NCN(CCN4CCOCC4)CN3)nc(C)c2c1 | -1.3 | -6.7% | i
C=C(C)c1cccc(C(C)(C)NC(=O)N2CCN(CC(N)=O)CC2)c1 | 0.92 | -3.0% | i
COc1ccc(C2SCC(=O)N2CC23CC4CC(CC(C4)C2)C3)cc1 (stereo unspecified) | nt | 5.2% | i
COc1cc(C(=O)NCc2ccc3c(c2)OCO3)ccc1OCc1c(C)noc1C | 1.4 | 0.5% | i
CCCCOC(=O)Nc1ccc(C(=O)OC)cc1 | -1.2 | -5.4% | i
O=C(NCCO)c1cccc2c1C(=O)c1ccccc1-2 | -0.31 | -2.8% | i
Cc1ccc(-c2ccc(=O)n(CC(=O)NCCN(C)C)n2)cc1 | -1.1 | 6.1% | i
CCCS(=O)(=O)c1c(S(=O)(=O)CCC)c2c3ccccc3ccn2c1C(=O)OC | nt | 1.5% | i
CC1CN(Cc2nc3c(c(=O)n(C)c(=O)n3C)n2CCCc2ccccc2)CC(C)O1 (stereo unspecified) | 0.36 | 1.3% | i
O=C(COc1ccccc1)NCCc1nc2ccccc2[nH]1 | -1.3 | 3.5% | i
CCC(=O)Nc1nc2ccc(NC(C)=O)cc2s1 | 0.34 | -1.5% | i
CCCCC[n+]1ccn(C2=C([O-])c3ccccc3C(=O)/C2=N\S(=O)(=O)c2ccccc2)c1 | nt | 4.6% | i
CCOC(Cn1c(-c2ccc(OC)cc2)nc2ccccc21)OCC | nt | 0.4% | i
Cc1cc(NC(=O)c2cc(C)on2)n(-c2ccccc2)n1 | -0.69 | -0.9% | i
COc1ccccc1Cn1c(-c2ccccc2OC)nc2ccccc21 | nt | -0.2% | i

Compound activity (PubChem)
